# High-throughput results deposited in PubChem by Johns Hopkins Ion Channel Center.
# KCNQ2 pot – potentiators of rat KCNQ2 potassium channel; Potassium voltage-gated channel subfamily KQT member 2 (Rattus norvegicus), O88943; CHO-K1 KCNQ2, FluxOR thallium flux fluorescence; stronger effect = higher value; B-score at 10 µM; 0.54% of 310,000 active; AID 2239, 2010;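 active means fluorescence ratio B-score at least 3 SD of library B-scores, with initial fluorescence B-score within 3 SD, cut at about 5.3 in these data; same plate scores as AID 2156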;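 further: B-score of peak minus minimum over baseline fluorescence ratio after K+ and Tl+ stimulus; positive B-score means potentiation of KCNQ2 with more thallium influx and brighter signal; only the inactives scoring about 0 or higher are listed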
# Target sequence (O88943 whole entry, looked up): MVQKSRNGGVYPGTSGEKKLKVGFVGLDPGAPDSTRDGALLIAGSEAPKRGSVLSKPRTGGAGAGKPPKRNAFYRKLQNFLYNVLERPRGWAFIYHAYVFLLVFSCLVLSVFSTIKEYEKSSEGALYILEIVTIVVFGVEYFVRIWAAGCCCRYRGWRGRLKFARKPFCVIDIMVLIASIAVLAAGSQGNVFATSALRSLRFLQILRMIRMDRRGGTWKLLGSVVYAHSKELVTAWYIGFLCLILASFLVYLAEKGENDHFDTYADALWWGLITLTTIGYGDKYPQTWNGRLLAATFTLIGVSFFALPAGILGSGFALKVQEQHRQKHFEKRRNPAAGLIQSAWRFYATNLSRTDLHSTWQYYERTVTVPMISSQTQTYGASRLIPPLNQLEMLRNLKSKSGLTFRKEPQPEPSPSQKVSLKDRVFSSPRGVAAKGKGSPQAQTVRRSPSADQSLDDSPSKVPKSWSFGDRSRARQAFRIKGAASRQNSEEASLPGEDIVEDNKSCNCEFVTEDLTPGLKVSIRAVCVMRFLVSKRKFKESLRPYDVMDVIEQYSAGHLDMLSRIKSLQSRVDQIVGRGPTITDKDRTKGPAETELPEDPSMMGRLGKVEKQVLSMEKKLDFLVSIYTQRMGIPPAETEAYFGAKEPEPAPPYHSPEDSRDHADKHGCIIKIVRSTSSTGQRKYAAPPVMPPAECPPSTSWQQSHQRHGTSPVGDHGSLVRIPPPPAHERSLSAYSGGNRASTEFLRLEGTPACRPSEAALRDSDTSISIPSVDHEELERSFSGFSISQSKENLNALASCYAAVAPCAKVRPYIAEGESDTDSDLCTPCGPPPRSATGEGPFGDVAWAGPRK
# KCNQ2 pot baseline – further read-out of KCNQ2 pot, marked with its call; B-score; compound at 10 µM; measured here: initial fluorescence intensity artifact check;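 brightness before thallium and not channel activity; 0 = typical well and far values either way flag optical interference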
# An asterisk follows results filed as active. Only part of the results is shown. The share of hits here may be higher or lower than overall.
# Under each structure: KCNQ2 pot, KCNQ2 pot baseline
> Cc1ccccc1N1OC2C(=O)N(c3ccc(F)cc3)C(=O)C2C1c1ccccn1 (centres undefined)
    1.4, -0.46
> O=C(COc1ccccc1Cl)NC(=S)N1CCc2ccccc21
    1.9, -1.5
> N#Cc1cccnc1N1CCC(C(N)=O)CC1
    0.85, 1.1
> CCOC(=O)N1CCN(C(=O)c2oc3ccc(S(=O)(=O)N(CC)CC)cc3c2C)CC1
    3, -0.07
> Cn1c(=O)c2c(nc(CN3CCN(C(=O)c4ccco4)CC3)n2CCc2ccccc2)n(C)c1=O
    3, -2.1
> COC(=O)CN(c1nc(C)c(Br)c(OC)n1)S(=O)(=O)c1ccc(C)cc1
    2.6, -1.7
> COc1ccc(NC(=O)c2cc(S(=O)(=O)N3CCS(=O)(=O)CC3)ccc2Cl)cc1
    0.8, 2.5
> O=C(Cn1nc(C(F)F)cc1C1CC1)N1CCCC1
    0.45, 3.6
> COC(=O)c1ccc2nc(NC(=O)C(C)(C)C)sc2c1
    2.1, -0.01
> COc1ccc2[nH]c(C(=O)Nc3cccc(C)n3)cc2c1
    1.3, -1.7
> O=C1OC(Nc2cc(Br)cc3cccnc23)c2ccccc21 (centres undefined)
    1.4, -0.3
> Cc1cc2ccccn2c1C(=O)c1ccncc1
    1.3, -0.16
> COc1ccc(CNS(=O)(=O)c2ccc(S(=O)(=O)N3CCCCC3)cc2)cc1
    0.29, 1
> Cc1cc2c(cc1S(=O)(=O)CCC(=O)NCCc1ccccc1)OCC(=O)N2
    2.7, 0.05
> O=C(NCc1ccccn1)Nc1ccc2c(c1)OCO2
    1.3, -1.8
> CN(C)CCCNc1ccc(-c2n[nH]c(=O)c3ccccc23)cc1[N+](=O)[O-]
    0.84, -2.3
> CCc1cccc(CC)c1NC(=O)COC(=O)c1cccc(S(=O)(=O)N2CCc3ccccc3C2)c1
    1.4, -2.1
> O=C(NCc1cccs1)C1CCC(=O)N(Cc2cccc(C(F)(F)F)c2)C1 (centres undefined)
    0.67, 0.03
> Cc1ccc(-n2c(SCC(=O)NCc3ccco3)nc3c(sc4ccccc43)c2=O)cc1
    0.06, -0.26
> CCCS(=O)(=O)N1CCN(Cc2ccccc2[N+](=O)[O-])CC1
    0.35, -0.03
> CCCNC(=O)CCc1c(C)nc2c(c(C)nn2-c2ccc(C)cc2)c1C
    0.13, 1.6
> COc1ccc(S(=O)(=O)N(CC(=O)N2CCOCC2)Cc2ccccc2)cc1C
    0.44, -0.74
> O=C(O)c1ccc(CSc2nnnn2-c2ccc(F)cc2)cc1
    2, -1.6
> Cc1ccc(CNC(=O)CCNC(=O)N2CCn3c2nc2ccccc23)cc1
    0.53, -0.57
> Cc1c(Cl)c(-c2n[nH]c(=S)n2-c2ccc(F)cc2)nn1C
    0.27, -0.48
> CCOc1ccc(CCNC(=O)c2nnc(Cc3ccc(F)cc3)o2)cc1OCC
    2.3, 0.02
> N#Cc1c(-c2ccccc2)cc(C2CC2)nc1SCC(=O)O
    0.05, 0.68
> CCn1c(O)c(N=NC(=S)NCC2CCCO2)c2ccccc21 (centres undefined)
    2.5, -2.4
> CCN(CC(=O)NC1CC1)S(=O)(=O)c1ccc(OC)cc1
    0.95, -0.51
> CCCCCCn1c(N2CCC(C(N)=O)CC2)nc2c1c(=O)n(C)c(=O)n2C
    0.48, 0.03
> CCCC(C(=O)NC1CCCC1)N(CC1CCCO1)C(=O)CNS(=O)(=O)c1ccccc1 (centres undefined)
    0.5, -0.88
> O=C1/C(=C\c2ccc(Br)cc2)SC(=S)N1NS(=O)(=O)c1ccccc1
    0.03, -1.1
> COC(=O)Nc1nnc(CCc2ccccc2)s1
    0.12, -0.17
> COc1ccc(NC(=O)CS(=O)(=O)c2ccc(C)cc2)c(OC)c1
    1.1, 0.94
> O=C(CN(c1ccccc1)S(=O)(=O)c1ccc(F)cc1)N1CCCCCC1
    0.52, -0.86
> Cn1nnnc1SCC1=C(C(=O)O)N2C(=O)C(NC(=O)C3CC3c3ccccc3)C2SC1 (centres undefined)
    0.04, -1.9
> COc1cc(C(=O)Oc2cccnc2)cc(OC)c1OC
    0.18, 0.31
> CCCN1CCC(N(CCc2ccccc2)Cc2ccccc2)CC1
    1.4, -2.9
> CCOc1ccc(CCNC(=O)c2nnn(CC(=O)Nc3ccc(OC)cc3)c2N)cc1OCC
    0.26, -1.6
> Cc1n[nH]c(C)c1S(=O)(=O)N(CC(=O)Nc1ccc2c(c1)OCCO2)c1ccc(C(C)C)cc1
    0.54, -1.5
> COc1ccc(S(=O)(=O)N2CCOCC2)cc1C(=O)Nc1nc2ccccc2s1
    0.49, 0.28
> Cc1ccc(C(=O)Nc2ccccc2C(=O)NC(CC(=O)O)C(=O)O)cc1 (centres undefined)
    0.08, 0.24
> O=C(O)CC/C(=N\Nc1ccc(Cl)cc1)c1cccs1
    0.22, 1.8
> O=C(NCc1ccco1)c1cccs1
    0.37, -0.54
> CC(=O)c1ccc(NC(=O)C(C)N2CCN(C/C=C/c3ccccc3)CC2)cc1 (centres undefined)
    0.21, 1.1
> Cc1nn(CC(=O)Nc2ccc3c(c2)nc(CN2CCCC2)n3C)c(=O)c2ccccc12
    1.4, -0.8
> N#Cc1c(N)n(CCNC(=O)c2ccccc2)c2nc3ccccc3nc12
    0.66, 0.07
> CCOC(=O)c1[nH]c2ccc(C)cc2c1N=C(C)N(C)C
    0.03, 0.06
> CC(C)(C)C(=O)Nc1nnc(SCC(=O)Nc2ccc3c(c2)OCO3)s1
    2.1, -1
> O=C1C2C3C=CC(C3)C2C(=O)N1Cc1ccccc1 (centres undefined)
    0.79, 0.02
> CCOC(=O)c1c(C)[nH]c(C(=O)CN2CCOCC2)c1C
    1.1, -0.89
> Cc1cc(NC(=O)c2cc(CC(C)C)on2)n(-c2ccccc2)n1
    1.5, -0.2
> Cc1cc(C)nc(SCc2ccc(C(=O)N/N=C/c3ccccc3C(=O)O)cc2)n1
    0.2, -0.01
> Cc1nc(C(=O)NNC(=O)c2ccccc2Cl)c(C(F)(F)F)o1
    0.28, -0.15
> CCOC(=O)c1cn(-c2ccc(F)c(F)c2F)c2c(F)c(F)c(F)cc2c1=O
    1.9, 0.01
> CCn1nnc(-c2ccc(N)cc2)n1
    2.5, 0.39
> Cc1cc(NC(=O)CSc2nc(=O)n3cc(Cl)ccc3n2)no1
    0.65, 1.8
> c1ccc(CN2CCC3(CC2)Nc2ccccc2S3)cc1
    1.2, 1.5
> CC(=O)Nc1ccc(N2C(=O)CSC2c2cccc(Br)c2)cc1 (centres undefined)
    0.37, 1.3
> C=CCN1C(=O)N(/C=C/C)c2cccc3cccc1c23
    0.76, -0.01

# (further entries)
# Under each structure: KCNQ2 pot, KCNQ2 pot baseline
> CCOc1ccc2nc(N3C(=O)/C(=C/c4ccc(Cl)cc4)NC3=S)sc2c1
    15*, -0.95*
> CCN(C(=O)COC(=O)c1ccc(C)c(S(=O)(=O)N2CCCCC2)c1)C1CCS(=O)(=O)C1 (centres undefined)
    0.93, -0.62
> CCC1CCCCN1S(=O)(=O)c1ccc([N+](=O)[O-])cc1 (centres undefined)
    2.3, -0.4
> Cc1cc([N+](=O)[O-])nn1CC(=O)N/N=C/c1ccccc1O
    2.7, 0.07
> O=[N+]([O-])c1ccc(N2CCCC2)cc1NC1CC1
    0.21, -1.4
> COc1cccc(NC(=O)CNC(=O)N2CC(=O)Nc3ccccc32)c1
    2.3, -0.75
> COc1ccc(CC(C(=O)Nc2cc(C)ccc2C)/C(N)=N/O)cc1 (centres undefined)
    0.29, -2.1
> CCc1nc2sc(C)c(C)c2c(=O)n1CCO
    0.19, 0.7
> COc1ccc(CCNC(=O)Cn2c(=O)oc3cc(Cl)ccc32)cc1OC
    0.1, 0.02
> O=S1(=O)C=C(SCCN2CCCC2)c2ccccc21
    0.04, 0.58
> CC1C/C(=N/NC(=O)c2ccc(CSc3nc4ccccc4[nH]3)cc2)CC(C)(C)C1 (centres undefined)
    1.1, -0.47
> CN(C)c1ccc(CNCCC2CCOC(C)(C)C2)cc1 (centres undefined)
    0.52, -0.16
> CCN(CC)S(=O)(=O)c1cc(C(=O)OCC(=O)Nc2c(F)cccc2F)ccc1F
    1.5, 0.1
> CC12CCC(C(=O)Nc3cccc(Cl)c3Cl)([C@H](Br)C1=O)C2(C)C (some centres undefined)
    1, -1.1
> CN(C)c1ccc(NC(=O)CSc2nc3ccccc3c(=O)n2C2CCCCC2)cc1
    1.2, -0.84
> CCOCC(O)CS(=O)Cc1ccccc1 (centres undefined)
    0.78, -0.1
> Cc1nc(Nc2cccc(F)c2)c2oc3ccccc3c2n1
    0.06, 0.24
> O=C(Oc1ccccc1N1CCOCC1)c1sccc1Br
    0.06, -0.14
> CS(=O)(=O)N(CCc1ccccc1)CC(=O)N1CCN(c2ccccc2F)CC1
    0.24, -0.41
> Cc1c(C#N)c(NC(=O)CCl)n(Cc2ccc(F)cc2)c1C
    2.6, 0.68
> Cc1ccc(-c2csc(C3=C(O)CN(NC(=O)c4ccco4)C3=N)n2)cc1
    1.2, -0.23
> CN(C(=O)c1ccno1)c1nnc(-c2cccnc2)s1
    1.1, -1.2
> O=C(CSc1ncn[nH]1)N/N=C/c1ccc(F)cc1
    0.47, 0.03
> O=S(=O)(NCCCc1ccccc1)c1ccc(Cl)cc1
    0.48, -2.8
> CCOC(=O)C1(Cc2ccccc2)CCN(Cc2csc(C(C)=O)c2)CC1
    1.1, 1.1
> CCOc1ccc(N(CC(=O)NCc2ccccc2)C(=O)Cn2nnc(-c3ccc(C)o3)n2)cc1
    0.43, 0.86
> Cc1ccccc1NC(=O)Cn1nc(-c2ccccc2)nc1-c1ccccc1
    0.05, -1.9
> O=C(O)CNC(=S)N(Cc1ccccc1Cl)C1CCCC1
    0.04, 0.42
> c1ccc(-c2csc(N3CCCCCC3)n2)cc1
    1.6, 0.04
> Cc1cc2c3c([nH]c2cc1S(=O)(=O)N1CCC2(CC1)OCCO2)CC(C)(C)CC3=O
    5.5*, 0.57*

# Ordered by value in KCNQ2 pot baseline (highest first): some entries from above.
Structure	KCNQ2 pot	KCNQ2 pot baseline
CCCNC(=O)CCc1c(C)nc2c(c(C)nn2-c2ccc(C)cc2)c1C	0.13	1.6
N#Cc1cccnc1N1CCC(C(N)=O)CC1	0.85	1.1
COc1ccc(S(=O)(=O)N2CCOCC2)cc1C(=O)Nc1nc2ccccc2s1	0.49	0.28
Cc1cc(C)nc(SCc2ccc(C(=O)N/N=C/c3ccccc3C(=O)O)cc2)n1	0.2	-0.01
CCCN1CCC(N(CCc2ccccc2)Cc2ccccc2)CC1	1.4	-2.9

# Other entries follow:
# Under each structure: KCNQ2 pot, KCNQ2 pot baseline
> O=C(c1cccs1)N1CCN(C23CC4CC(CC(C4)C2)C3)CC1
    1.1, 0.8
> CC1(C)CC(NC(=O)c2cc(S(=O)(=O)N3CCOCC3)c(Cl)cc2Cl)CC(C)(C)N1
    0.46, -0.45
> Cn1c(-c2ccccc2)cnc1SCC(=O)NCc1ccco1
    0.54, -0.81
> O=C(CN1CCc2ccccc2C1)Nc1cccc(S(=O)(=O)N2CCCC2)c1
    0.04, -2.4
> COc1ccc(NC(=O)C(c2ccccc2)N(C)C(=O)CNC(C)=O)cc1 (centres undefined)
    1.3, -1.8
> COc1ccc2c(c1)c(C(O)CN1CCN(Cc3ccc4c(c3)OCO4)CC1)c(C)n2C (centres undefined)
    0.96, 0.23
> CCOC(=O)Cc1csc(NC(=O)c2ccc(S(=O)(=O)N3CCOCC3)cc2)n1
    0.56, -0.65
> CCc1ccccc1Nc1nc(N)nc(CSCC(=O)c2cc(C)n(C)c2C)n1
    0.39, -0.47
> CN1CCN(S(=O)(=O)c2ccc(N3CCN(S(=O)(=O)/C=C/c4ccccc4)CC3)nc2)CC1
    0.05, 0.02
> CN1CCN(C(=O)/C=C/c2ccc(Cl)c(Cl)c2)CC1
    2.5, -0.03
> COc1cc(CC(=O)NC2CCCc3ccccc32)cc(OC)c1OC (centres undefined)
    0.39, 0.29
> CCn1c(SCC(=O)NCCc2ccccc2)nnc1-c1ccco1
    1.8, -2.1
> c1ccc(-n2ncc3cccnc32)cc1
    0.51, 0.21
> CCOC(=O)c1c(NC(N)=O)sc(C)c1C
    0.86, -0.07
> CC1CCN(S(=O)(=O)c2ccc(NC(=O)CN3CCOCC3)cc2)CC1
    0.38, 0.96
> COC(=O)C1=C(C(=O)OC)[C@@H]2Nc3ccccc3[C@@]23C[C@@H](C(=O)OC)N(C(=O)C2CCC2)C3=N1
    1.2, 0.08
> CCn1c(SCC(=O)NNC(=O)c2ccc(C)cc2)nnc1-c1ccco1
    0.65, -1.2
> Cc1nc2sc(C(c3ccco3)N3CCN(c4ccccc4F)CC3)c(O)n2n1 (centres undefined)
    1.3, -1.6
> CC(C)(C)C1C=C(Sc2ccccc2)C(=O)O1 (centres undefined)
    0.28, -0.14
> COc1cc(NC(=O)C2CCC(CNc3c(N4CCC(C)CC4)c(=O)c3=O)CC2)cc(OC)c1 (centres undefined)
    0.43, -1.2
> O=C1c2ccccc2C(O)N1Cc1ccc2c(c1)OCO2 (centres undefined)
    1.4, 0.42
> COc1ccc(-c2noc(CCC(=O)NCCN3CCN(c4ccccc4F)CC3)n2)cc1
    0.67, 0.01
> CC(C)(C)C1CCC2(CC1)NC(CO)(CO)CO2 (centres undefined)
    0.14, 0.2
> CC(OC(=O)CN1C(=O)C2CC=CCC2C1=O)C(=O)Nc1ccc(F)cc1Cl (centres undefined)
    0.09, -0.81
> COc1ccccc1C(=O)Nc1c[nH]c(=O)[nH]c1=O
    2.2, 2.6
> COc1cc(C)c(NC(=O)Cc2ccsc2)cc1OC
    0.02, 2.4
> O=C(NN1C(=O)C2C3C=CC(C3)C2C1=O)C(O)c1ccccc1 (centres undefined)
    0.19, -0.4
> O=C(CSc1nncn1-c1ccccc1)NC1CCCCC1
    0.76, -1.1
> Cc1cc(C(=O)N/N=C/c2c(C)nn(-c3ccccc3)c2C)n[nH]1
    0.76, -0.03
